# Screening data deposited in PubChem by Broad Institute.
# rRNA inh HTS: selective bacterial rRNA inhibition in E. coli; AID 720706; GFP signal change (wild-type ribosome), % (no concentration beside the values); 1.6% of 350,000 active; E. coli WT GFP vs humanized-ribosome RFP mutants, fluorescence, 24 h; hits give low values; DMSO median 0, no signal -100;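 active means significant combined selectivity score with lowered wild-type GFP, culture density cut under 30%, mutant RFP and density less affected; inactive means any of these conditions unmet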; further: one replicate is shown; some compounds called inactive have numbers as strong as hits
# FGF22 binding: binders of recombinant human FGF22 by thermal shift. Q9HCT0. SYPRO orange fluorescence; percent of sucrose octasulfate shift, DMSO zero. calls only at 9.99 µM. 1.5% of 340,000 active. AID 651658;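 active means melting point raised past a set limit in the mean and every replicate; three in four hits are not shown here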
# Target sequence (Q9HCT0 whole entry, looked up): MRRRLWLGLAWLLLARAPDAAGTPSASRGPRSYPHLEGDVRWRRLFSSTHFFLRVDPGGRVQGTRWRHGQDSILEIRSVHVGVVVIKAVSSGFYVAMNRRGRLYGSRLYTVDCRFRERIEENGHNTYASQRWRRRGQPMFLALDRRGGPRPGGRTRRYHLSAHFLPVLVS
# rRNA inh HTS OD600: also measured in rRNA inh HTS; calls as there; OD600 change, %; measured here: OD600 growth;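 optical density of the mix in the first replicate; 0 = DMSO median and -100 = no signal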
# rRNA inh HTS RFP: recorded beside rRNA inh HTS, whose call it bears; RFP signal change, %; measured here: RFP humanized mutant strains;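 first replicate; 0 = DMSO median and -100 = no signal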
# Numbers without * were called inactive; i = inactive; + = active, no number. These rows are one share of the data; the hit share may differ from the screen's.
SMILES,rRNA inh HTS,rRNA inh HTS OD600,rRNA inh HTS RFP,FGF22 binding
O=C(Nc1ccccc1)N1C[C@H]2[C@@H](c3ccccc31)[C@H](CO)N2C(=O)c1ccncc1,3.3,6.1,0.1,i
COc1ccc(CCN2CCC(CN3C(=S)NC[C@@H]3Cc3ccccc3)CC2)cc1OC,5.7,10.3,-4.0,i
COc1ccc(-c2cnc3c(c2)C(=O)N([C@@H](C)CO)C[C@H](C)[C@H](CN(C)C(=O)Cc2ccncc2)O3)cc1,5.6,-0.3,0.5,i
O=C(C[C@@H]1C=C[C@@H](NC(=O)c2ccccn2)[C@H](CO)O1)NCc1cc(F)cc(F)c1,-1.3,-3.1,-0.6,i
O=C(Cc1ccccn1)N1CC[C@@H]2[C@H]1c1cc(-c3cccc(F)c3)ccc1N[C@@H]2CO,6.0,15.8,-3.1,i
O=C(C[C@@H]1CC[C@@H]2[C@H](COC[C@@H](O)CN2C(=O)Nc2ccccc2)O1)NCc1ccncn1,5.6,10.5,-2.0,i
C[C@@H]1CN([C@H](C)CO)S(=O)(=O)c2ccc(C#Cc3ccncc3)cc2O[C@H]1CN(C)C(=O)c1ccncc1,-2.6,-9.8,-1.6,i
C[C@H](CO)N1C[C@H](C)[C@H](CN(C)C(=O)CCCN(C)C)OCCCC[C@H](C)Oc2ccc(NS(=O)(=O)c3ccc(Cl)cc3)cc2C1=O,1.7,2.5,0.9,i
COCC(=O)N1[C@H](CO)[C@@H](c2ccc(-c3cccc(OC)c3)cc2)C12CN(C(C)=O)C2,-2.3,-2.0,-1.7,i
CN(C)C(=O)C[C@H]1C[C@H]2c3cc(NC(=O)c4ccc5c(c4)OCO5)ccc3O[C@H]2[C@H](CO)O1,-5.2,-3.0,-1.4,i
O=C(NCCc1ccncc1)[C@@H]1[C@@H](CO)[C@@H]2Cn3c(ccc(-c4ccncc4)c3=O)[C@H]1N2,2.0,5.0,-3.8,i
CC(=O)N(C)C[C@@H]1Oc2ncc(C#Cc3ccccc3F)cc2C(=O)N([C@@H](C)CO)C[C@@H]1C,-0.4,7.8,-2.3,i
C[C@@H]1CN([C@@H](C)CO)C(=O)CCCn2cc(nn2)CO[C@H]1CN(C)C(=O)Nc1ccccc1C(F)(F)F,-1.0,5.8,-2.0,i
C[C@@H]1CCCCO[C@@H](CN(C)C(=O)C2CCCCC2)[C@@H](C)CN([C@H](C)CO)C(=O)c2cc(NS(=O)(=O)c3cccs3)ccc2O1,-2.3,0.2,0.6,i
CCCNC(=O)N1CC2(CN(C(=O)C3CCCCC3)C2)c2c([nH]c3cc(OC)ccc23)[C@@H]1CO,-0.6,-2.6,-1.0,i
O=C(Nc1cccc(F)c1)N1CCCCN2[C@H](CO)[C@@H](c3ccc(-c4ccncc4)cc3)[C@@H]2C1,-2.3,-37.5,11.0,i
C[C@@H]1CN([C@H](C)CO)C(=O)c2cc(NC(=O)Cn3cnnn3)ccc2O[C@H]1CN(C)C(=O)Nc1ccc(F)cc1,4.7,1.8,1.8,i
CO[C@@H](C(=O)N(C)C[C@@H]1OCc2ccccc2-c2ccccc2C(=O)N([C@H](C)CO)C[C@@H]1C)c1ccccc1,-0.4,2.6,0.0,i
CN1C(=O)c2cc(NC(=O)C3CCOCC3)ccc2OC[C@@H]2O[C@@H](CC(=O)NCc3ccc4c(c3)OCO4)CC[C@@H]21,2.6,8.1,-3.7,i
CC(C)NC(=O)N(C)C[C@@H]1Oc2ccc(NC(=O)Nc3ccc(F)cc3)cc2CC(=O)N([C@H](C)CO)C[C@H]1C,-2.4,-6.0,0.3,i
C[C@@H]1CN([C@H](C)CO)C(=O)c2cc(NS(=O)(=O)c3ccc(F)cc3)ccc2O[C@@H]1CN(C)Cc1ccc2c(c1)OCO2,-3.9,4.9,-3.3,i
C[C@H]1CN([C@@H](C)CO)C(=O)CCCn2cc(nn2)CO[C@H]1CN(C)C(=O)C1CCCCC1,2.9,19.2,-1.8,i
O=C(C[C@H]1C[C@@H]2c3cc(NC(=O)Nc4ccc(C(F)(F)F)cc4)ccc3O[C@@H]2[C@@H](CO)O1)NCc1ccc(Cl)cc1,-10.1,-26.2,27.9,i
COC(=O)[C@@H](Cc1ccccc1)NC(=O)[C@H]1O[C@@H](n2cnc3c(=O)[nH]c(N)nc32)[C@H](O)[C@@H]1O,17.0,1.2,-2.6,i
CC(C)C#Cc1cnc2c(c1)C(=O)N([C@H](C)CO)C[C@@H](C)[C@H](CN(C)C(=O)Nc1ccc(F)cc1)O2,3.0,-3.8,1.2,i

# Complete entries, looked up by structure:
# COC(=O)[C@@H](Cc1ccccc1)NC(=O)[C@H]1O[C@@H](n2cnc3c(=O)[nH]c(N)nc32)[C@H](O)[C@@H]1O is listed as rRNA inh HTS = 17.0; rRNA inh HTS OD600 = 1.2; rRNA inh HTS RFP = -2.6; FGF22 binding = i
# C[C@H]1CN([C@@H](C)CO)C(=O)CCCn2cc(nn2)CO[C@H]1CN(C)C(=O)C1CCCCC1 is listed as rRNA inh HTS = 2.9; rRNA inh HTS OD600 = 19.2; rRNA inh HTS RFP = -1.8; FGF22 binding = i
# CO[C@@H](C(=O)N(C)C[C@@H]1OCc2ccccc2-c2ccccc2C(=O)N([C@H](C)CO)C[C@@H]1C)c1ccccc1 is listed as rRNA inh HTS = -0.4; rRNA inh HTS OD600 = 2.6; rRNA inh HTS RFP = 0.0; FGF22 binding = i

# (continued)
SMILES,rRNA inh HTS,rRNA inh HTS OD600,rRNA inh HTS RFP,FGF22 binding
CCCNC(=O)N1[C@H](CO)[C@H](c2ccccc2C2=CCCCC2)[C@@H]1C#N,0.5,-46.7,-5.5,i
O=C(C[C@@H]1C=C[C@@H](NC(=O)CC2CC2)[C@H](CO)O1)NCc1ccc(Cl)cc1,5.2,6.8,2.1,i
C[C@@H]1CCCCO[C@H](CN(C)C(=O)c2ccncc2)[C@@H](C)CN([C@@H](C)CO)C(=O)c2cc(NC(=O)c3ccccc3)ccc2O1,-0.9,-3.7,-0.4,i
C[C@@H]1CN([C@@H](C)CO)C(=O)c2cc(NC(=O)CCC(F)(F)F)ccc2O[C@@H]1CN(C)C(=O)Nc1ccc(F)cc1,1.4,-0.4,-0.5,i
C[C@H](CO)N1C[C@H](C)[C@@H](CN(C)S(=O)(=O)c2cn(C)cn2)OCCCC[C@H](C)Oc2ccc(NS(=O)(=O)c3ccc(F)cc3)cc2C1=O,-3.7,-8.7,-2.6,i
CCCCCCCCN1C(=O)[C@@H](CC(=O)N2CCN(C(=O)c3ccco3)CC2)C[C@@]2(C(=O)OC)C1=C[C@H](C1CCCC1)O[C@@H]2C,8.9,8.0,6.0,i
CO[C@H]1CN(C)C(=O)c2ccc(NS(C)(=O)=O)cc2OC[C@H](C)N(Cc2cncnc2)C[C@@H]1C,2.5,2.9,0.5,i
COc1ccc(NC(=O)N[C@@H]2CC[C@H](CCNC(=O)CCN3CCCCC3)O[C@@H]2CO)cc1,-0.3,-1.8,0.5,i
O=C(C[C@@H]1CC[C@H]2[C@@H](COC[C@@H](O)CN2C(=O)c2ccccc2)O1)NCc1cccc(F)c1,-1.2,-3.7,2.9,i
CO[C@H](CN(C)S(=O)(=O)c1cccc(Cl)c1)[C@H](C)CN([C@@H](C)CO)S(=O)(=O)c1cccc(Cl)c1,-2.6,-32.3,29.6,+
O=C(CN1CCOCC1)N[C@H]1CC[C@@H](CCNC(=O)C2CCCC2)O[C@@H]1CO,3.9,-0.8,-2.1,i
C[C@@H]1CN([C@H](C)CO)C(=O)c2cc(-c3ccccc3)cnc2O[C@H]1CN(C)C(=O)Nc1ccccc1F,0.0,8.4,-0.9,i
COCCNC(=O)C[C@@H]1C[C@H]2c3cc(NS(C)(=O)=O)ccc3O[C@H]2[C@@H](CO)O1,1.6,-1.4,0.0,i
CC(C)[C@H](NC(=O)c1ccc(Cl)c(Cl)c1)C(=O)N1CCC[C@H]1C(=O)NCCc1ccccc1Cl,-29.0,-24.9,-3.3,i
C[C@H]1CN([C@@H](C)CO)C(=O)c2cc(NC(=O)Cc3ccccc3)ccc2O[C@H]1CN(C)C(=O)Nc1ccc(F)cc1,1.0,2.5,0.1,i
CN1CCN(C(=O)C[C@H]2CC[C@@H](NC(=O)Nc3ccccc3F)[C@@H](CO)O2)CC1,-3.1,-6.8,-1.7,i
N#C[C@@H]1N[C@@H](CO)[C@@H]1c1ccc(C#Cc2ccc(F)cc2)cc1,-3.1,-32.9,6.7,i
C[C@@H]1CN([C@H](C)CO)C(=O)c2cc(C#CCc3ccccc3)cnc2O[C@@H]1CN(C)Cc1cccc(F)c1,-13.1,-47.9,2.4,i
Cc1ccc(S(=O)(=O)N(C)C[C@@H]2OCCCC[C@H](C)Oc3ccc(NC(=O)Nc4ccc5c(c4)OCO5)cc3C(=O)N([C@@H](C)CO)C[C@H]2C)cc1,-7.9,-2.2,-5.7,i
CC(C)NC(=O)Nc1ccc2c(c1)C(=O)N([C@@H](C)CO)C[C@@H](C)[C@@H](CN(C)S(=O)(=O)c1cccs1)OCCCC[C@H](C)O2,-3.0,-8.8,1.2,i
C[C@@H]1CN([C@@H](C)CO)C(=O)c2cc(-c3ccncc3)cnc2O[C@H]1CN(C)S(=O)(=O)c1ccc(F)cc1,-2.4,3.3,-1.4,i
CCNC(=O)Nc1ccc2c(c1)C(=O)N(C)[C@@H]1CC[C@H](CC(=O)NCC3CCCCC3)O[C@H]1CO2,0.7,-0.1,-2.0,i
O=C(N[C@H]1C=C[C@@H](CC(=O)N2CCOCC2)O[C@@H]1CO)c1cccc(F)c1,0.2,3.4,-0.4,i
C[C@H](CO)N1C[C@H](C)[C@@H](CN(C)C(=O)Nc2ccccc2F)Oc2ncc(/C=C/c3ccccc3)cc2C1=O,-3.1,-19.9,12.8,i
CO[C@H]1CN(C)C(=O)c2ccc(NS(=O)(=O)c3c(C)noc3C)cc2OC[C@@H](C)NC[C@H]1C,4.1,5.2,-1.6,i

# The list goes on.
SMILES,rRNA inh HTS,rRNA inh HTS OD600,rRNA inh HTS RFP,FGF22 binding
Cc1noc(C)c1NC(=O)N(C)C[C@@H]1OCCCC[C@@H](C)Oc2ccc(NS(C)(=O)=O)cc2C(=O)N([C@H](C)CO)C[C@@H]1C,3.7,15.3,-0.9,i
C[C@H](CO)N1C[C@H](C)[C@@H](CN(C)Cc2ccc(C(=O)O)cc2)Oc2c(NC(=O)C3CCCCC3)cccc2C1=O,-0.3,5.1,-1.0,i
CC(=O)N(C)C[C@@H]1[C@@H](c2ccc(-c3ccc(F)cc3)cc2)[C@H](CO)N1C(C)=O,-1.0,8.7,0.5,i
COc1ccc(NC(=O)N(C)C[C@@H]2Oc3ccc(NS(=O)(=O)c4cn(C)cn4)cc3CC(=O)N([C@@H](C)CO)C[C@H]2C)cc1,0.6,-1.9,3.0,i
C[C@@H]1CN([C@H](C)CO)C(=O)c2cc(C#CC3CCCC3)cnc2O[C@@H]1CN(C)C(=O)Nc1ccccc1,1.5,8.2,-1.6,i
CO[C@H]1CN(C)C(=O)c2cc(NC(=O)C3CC3)ccc2OC[C@@H](C)N(Cc2ccncc2)C[C@H]1C,-0.8,2.8,-1.0,i
CCNC(=O)C[C@@H]1CC[C@@H]2[C@H](COc3ccc(NC(=O)C4CCOCC4)cc3C(=O)N2C)O1,-0.1,2.6,0.6,i
COc1ccc2c3c(n(C)c2c1)[C@@H](CO)N(C(=O)Nc1ccccc1F)CC31CCN(C(=O)c2ccccc2F)CC1,-2.6,-3.5,-0.3,i
N#C[C@H]1[C@H](c2ccc(C3=CCCCC3)cc2)[C@H](CO)N1C(=O)NC1CCCCC1,-9.1,-63.2,3.2,i
COc1cccc(NC(=O)N(C)C[C@H]2Oc3ncc(C4=CCCCC4)cc3C(=O)N([C@H](C)CO)C[C@@H]2C)c1,2.0,3.2,-0.1,i
CO[C@H]1CN(C)C(=O)c2cc(NC(=O)C3CC3)ccc2OC[C@@H](C)N(C(=O)C2CCCCC2)C[C@@H]1C,-0.2,-0.8,-1.8,i
O=S(=O)(NCC[C@@H]1CC[C@@H](NS(=O)(=O)c2cccc(Cl)c2)[C@H](CO)O1)c1cccc(F)c1,-8.7,-18.4,3.3,i
COCC(=O)N1[C@H](C#N)[C@H](c2ccccc2C2=CCCC2)[C@@H]1CO,-2.5,14.1,-0.4,i
C[C@H]1CN([C@@H](C)CO)C(=O)c2cc(NC(=O)Cn3cnnn3)ccc2O[C@H]1CN(C)Cc1ccc(Oc2ccccc2)cc1,0.7,-5.3,0.7,i
C[C@@H]1CN([C@@H](C)CO)C(=O)c2cccc(NC(=O)Nc3ccccc3)c2O[C@H]1CN(C)Cc1ccccc1,-9.1,-20.7,1.5,i
C[C@H](CO)N1C[C@H](C)[C@@H](CN(C)C(=O)C2CCCCC2)OCCCC[C@H](C)Oc2ccc(NC(=O)Nc3ccc(F)cc3)cc2C1=O,-2.8,-1.8,-1.9,i
O=C(/C=C(\Nc1cccc(OC(F)F)c1)c1ccccc1)c1ccccc1,-15.7,-8.6,2.1,i
Cc1ccc(S(=O)(=O)N(C)C[C@@H]2Oc3c(NC(=O)c4ccncc4)cccc3C(=O)N([C@H](C)CO)C[C@H]2C)cc1,2.0,1.0,-2.4,i
CO[C@H]1CN(C)C(=O)c2cc(NS(=O)(=O)CC(F)(F)F)ccc2OC[C@H](C)N(C)C[C@@H]1C,3.3,5.3,-0.9,i
C[C@H]1CCCCO[C@H](CN(C)Cc2ccc(Cl)c(Cl)c2)[C@@H](C)CN([C@@H](C)CO)C(=O)c2cc(NC(=O)Nc3ccc4c(c3)OCO4)ccc2O1,0.4,-0.3,0.5,i
